# Screening results from PubChem BioAssay.
# RN4220 kill: kills Staphylococcus aureus RN4220; hit rate 0.33% among 330,000; S. aureus RN4220 growth, OD600, 16 h; inhibition, % (test concentration not listed);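 active means z-score of -3 or lower and OD600 up to 0.18 on both plates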;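 further: plate controls were untreated cells for no effect and reference antibiotic for full effect; stock transfer was 100 nL into about 80 µL; one replicate is shown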
# Mtb hypoxia inh: reduces hypoxia-regulated biosensor signal in M. tuberculosis | fluorescence inhibition, % (no concentration beside the values) | hit rate 0.1% among 300,000 | M. tuberculosis hypoxia-regulated fluorescent reporter, fluorescence;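 active means 35 to 45% if threefold the growth effect, above 45% if 1.5-fold the growth effect; inactive means the rest, general growth blockers included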;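 further: wells of about 50 µL received 100 nL stock; 0% = vehicle wells and 100% = reference inhibitor wells; whole bacteria with a GFP reporter of the hypoxia response; strong numbers were not always called active; many hits fall short of the cut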
# Bead autofluor: flagged as autofluorescent in microsphere protease counterscreen. fluorescence intensity (no concentration beside the values). compound autofluorescence counterscreen, microsphere flow cytometry; hits give high values. hit rate 3.1% among 360,000;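 active means at least 3 SD above the mean of all compounds, about 16000 in these data; inconclusive means too few beads counted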;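 further: 100 nL of 1 mM stock went into each well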
# Sa ugtP lethal: growth inhibition of S. aureus ugtP deletion strain | AID 1259309 | growth inhibition, % (test concentration not listed) | S. aureus RN4220 ugtP deletion, OD600 growth, 16 h; some inactives read as strong as hits | hit rate 0.54% among 330,000;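 active means z-score under -3 and OD600 up to 0.15 on both plates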;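 further: plate controls were untreated wells for no effect and antibiotic for full effect; wells of about 80 µL received 100 nL stock; the first replicate is given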
# PrP UTR inh: inhibition of PrP 5' UTR reporter expression. cell-based PrP 5' UTR mRNA reporter, plate reader. inhibition, % (no concentration beside the values). hit rate 0.35% among 340,000;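 active means every replicate at 50% or more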;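 further: 0 = median of the neutral control wells; tested in H4 reporter cells; numbers are from one replicate; inactives centre near -14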
# BJeLR lethal: BJeLR cell viability loss; BJeLR (HRASV12) viability, CellTiter-Glo ATP luminescence, 48 h; reference of the scale not given here; inhibition, % (test concentration not listed); hit rate 0.17% among 300,000; AID 1554;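 active means replicate mean above 50%; inconclusive means above 50% but judged a plate artefact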;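 further: 50 nL library stock added to about 25 µL; numbers are from one replicate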
# Mtb hypoxia inh growth: further read-out of Mtb hypoxia inh, marked with its call; growth inhibition, %; measured here: M. tuberculosis growth (absorbance);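 0% = vehicle and 100% = reference antibiotic; read after six days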
# The depositor's hits bear a star; u = inconclusive; x = no result given. Not a hit list; about 3.9% have a hit in one of these screens.
SMILES,RN4220 kill,Mtb hypoxia inh,Mtb hypoxia inh growth,Bead autofluor,Sa ugtP lethal,PrP UTR inh,BJeLR lethal
COc1ccc(/C=C(/NC(=O)c2ccc([N+](=O)[O-])cc2)C(=O)NCCCN(C)C)cc1,0.0,1.8,-0.5,4752,-2.0,-26.7,2.3
COc1ccc(CCNC(=O)CSc2nn3c(=O)c(C)nnc3s2)cc1OC,2.2,-0.2,-0.1,4461,5.6,-5.4,-5.1
c1cncc(Cc2cc3ccccc3[nH]2)c1,2.0,-5.1,5.6,2036,-7.2,-6.1,5.4
Cc1c([N+](=O)[O-])c(CC=NO)nn1C,3.7,-7.3,-3.1,x,-1.2,x,x
COc1ccc(C(=O)O)cc1NS(=O)(=O)c1cccc2nsnc12,1.3,x,x,5884,-1.4,-7.3,-1.6
Cc1ccc(Cl)c2c(N=Nc3ccccc3)c(O)[nH]c12,0.5,1.3,-5.5,3404,2.7,-74.9,0.5
COP(=O)(OC)C(Nc1ccc([N+](=O)[O-])cc1)c1ccccc1 (stereo not drawn),2.4,-2.2,-2.6,3773,6.8,5.8,8.1
CC(=O)c1cnc2ncnn2c1C,1.8,-5.1,7.5,2335,3.6,-4.2,-1.9
Cc1ccc(NC(=O)CSc2nnc(CNC(=O)C34CC5CC(CC(C5)C3)C4)n2-c2ccc(F)cc2)cc1,5.2,12.4,9.6,2122,-2.4,-6.3,-2.1
Cc1cc(C(=O)NC2CC(C)(C)Cc3c2cnn3-c2cccc(F)c2)n(C)n1 (stereo not drawn),-1.4,0.8,7.3,6518,3.7,-24.8,2.6
Cc1[nH]c2ccccc2c1C1=CC(=O)C=CC1=O,7.5,8.2,0.1,3759,-0.6,-27.5,x
COc1ccc(/C=C/C(=O)c2cc(F)ccc2OC(=O)c2ccc(OC)c(OC)c2)cc1OC,6.2,7.9,9.2,2254,-8.4,-15.1,7.5
Cc1ccc(Cn2nc3c(cc2=O)CCc2ccccc2-3)cc1,4.5,14.8,15.5,4281,-18.4,-22.4,6.7
COc1ccc(NC(=O)N2CCN(c3nc(-c4cccc(OC)c4)cs3)CC2)cc1,-2.7,-0.5,15.0,11359,-11.3,-19.4,0.8
CC(NC(=O)Nc1ccc(Cl)cc1)C(c1cccs1)N1CCOCC1 (stereo not drawn),14.8,-2.2,12.2,6064,4.9,-19.2,1.6
O=C(NN=Cc1cccc([N+](=O)[O-])c1)c1ccc(COc2ccccc2-c2ccccc2)cc1,10.1,-7.3,-2.0,x,-6.7,x,x
COC(=O)c1cccc(NC(=O)CCN2C(=O)C3CC=CCC3C2=O)c1 (stereo not drawn),0.0,0.7,0.1,4150,3.1,-8.8,x
Cn1c(N)c(C(=O)CSc2nnc(-c3ccccc3F)n2C2CC2)c(=O)n(C)c1=O,0.2,11.2,-0.3,4019,1.0,-42.2,-20.5
O=C(CNC(=O)c1ccccc1)OCc1cc(=O)n2cc(Br)ccc2n1,0.0,-4.1,-6.9,2638,-3.5,-9.1,-1.4
CC(C)NC(=S)NC1(C)CCS(=O)(=O)C1 (stereo not drawn),2.5,x,x,1954,1.3,-7.3,-7.3
O=C(Cc1ccccc1F)Nc1cccc(S(=O)(=O)N2CCOCC2)c1,-0.2,-5.2,-5.9,2943,-0.1,-4.6,x
C=CCOc1cccc(C2C(C(=O)c3cccs3)=C(O)C(=O)N2Cc2cccnc2)c1 (stereo not drawn),3.1,-2.8,4.2,4301,-4.7,-5.0,3.3
O=C(N/C(=C\c1ccc(Cl)cc1)C(=O)N1CCOCC1)c1ccc([N+](=O)[O-])cc1,7.2,1.6,4.4,4525,7.1,-10.8,2.2
O=C(N/N=C/C1CCCCC1)c1ccccn1,x,x,x,3509,x,-24.8,4.4
CCOC(=O)c1cn2nc(Oc3ccc(C#N)cc3)ccc2n1,2.9,-1.2,-0.7,4598,11.6,-9.4,-2.5

# Structural class, those above containing a thiophene ring, fused or not (2)
SMILES,RN4220 kill,Mtb hypoxia inh,Mtb hypoxia inh growth,Bead autofluor,Sa ugtP lethal,PrP UTR inh,BJeLR lethal
CC(NC(=O)Nc1ccc(Cl)cc1)C(c1cccs1)N1CCOCC1 (stereo not drawn),14.8,-2.2,12.2,6064,4.9,-19.2,1.6
C=CCOc1cccc(C2C(C(=O)c3cccs3)=C(O)C(=O)N2Cc2cccnc2)c1 (stereo not drawn),3.1,-2.8,4.2,4301,-4.7,-5.0,3.3

# Back to the main list, repeating the three entries before the break.
SMILES,RN4220 kill,Mtb hypoxia inh,Mtb hypoxia inh growth,Bead autofluor,Sa ugtP lethal,PrP UTR inh,BJeLR lethal
O=C(N/C(=C\c1ccc(Cl)cc1)C(=O)N1CCOCC1)c1ccc([N+](=O)[O-])cc1,7.2,1.6,4.4,4525,7.1,-10.8,2.2
O=C(N/N=C/C1CCCCC1)c1ccccn1,x,x,x,3509,x,-24.8,4.4
CCOC(=O)c1cn2nc(Oc3ccc(C#N)cc3)ccc2n1,2.9,-1.2,-0.7,4598,11.6,-9.4,-2.5
OCc1ccc(OCCCOc2cccc3cccnc23)cc1,4.1,-0.6,0.5,4063,-3.5,-68.3,-2.4
COc1cc(/C=N/N2C(=O)C3C4C=CC(CC4)C3C2=O)ccc1O (stereo not drawn),x,x,x,4795,x,-16.8,7.1
Cc1ccc2c(c1)nnc1nnc(SCC(=O)O)n12,2.4,5.2,14.4,6324,4.3,x,-7.4
CC1CN=C(Nc2ccccc2)N1CCC1CCCCC1 (stereo not drawn),1.8,3.6,6.7,x,-9.2,x,x
COc1ccc(CNc2nc(-c3cccnc3)nn2C(=O)c2ccco2)cc1,-0.3,x,x,2760,10.2,-11.7,-1.3
CC(=O)N1CCCc2cc(S(=O)(=O)NCc3ccc(C)cc3)ccc21,8.9,x,x,3064,1.0,-28.4,3.1
Cc1ccc(/C=C(/C#N)c2nc(CCN3C(=O)c4ccccc4C3=O)cs2)cc1,6.1,16.4,6.5,6270,1.2,-49.7,-6.0
CN1C(=O)c2cccc3c(N(C)C)ccc(c23)C1=O,1.3,-10.0,3.0,3434,0.8,-10.6,2.3
CC(=O)OC1(c2ccccc2)CCN(C2CCCCC2)CC1C (stereo not drawn),-13.5,2.8,8.5,5696,-5.5,-4.3,9.3
COC(=O)c1ccccc1NC(=O)CSc1nnc(C(CO)NC(=O)c2ccccc2)n1C (stereo not drawn),-3.7,-4.3,-16.7,8044,-2.2,3.4,-2.0
CC(=O)Nc1ccc(NC(=O)CCCn2cnc3ccccc3c2=O)cc1,1.7,-1.2,-0.1,4066,6.8,-28.0,4.7
O=C(NCc1ccon1)C1CCC(=O)N(CCc2ccc(Cl)cc2)C1 (stereo not drawn),4.0,1.4,-4.6,3652,13.2,-6.0,-0.6
NNC(=O)CCCCCCCCCCOCCCCO,4.4,19.4,9.7,4740,5.2,-11.9,1.2
COc1cccc(C(=O)Nc2cc(C)ccc2NC(=O)COc2ccccc2)c1,6.1,2.6,-7.3,11104,-12.4,x,-3.5
CCCN(CC(=O)Nc1ccc(Cl)cc1Cl)C(=O)CC(NC(C)=O)c1ccccc1 (stereo not drawn),2.0,-7.3,-5.1,4510,3.5,6.9,-5.5
Cc1ccc(C(C)C)c(OCc2nn(CC(=O)c3ccc(Cl)cc3)c3[n+]2CCCCC3)c1,100.5*,x,x,4908,99.4*,-10.1,-8.2
O=C(NCCCN1CCOCC1)c1sc2cc(F)ccc2c1Cl,-0.4,13.3,16.6,2157,1.2,-35.7,1.3
CN(Cc1ccc(F)cc1)C(=O)COc1ccccc1-c1ccccc1,10.3,-0.2,3.2,1953,1.5,-16.4,-0.4
COc1ccc(CCNC(=O)CN(Cc2ccc(Cl)cc2)S(C)(=O)=O)cc1OC,0.4,-13.1,-3.0,4163,-0.5,-18.7,6.0
COC(=O)c1c(NC(NC(=O)C(C)C)C(Cl)(Cl)Cl)sc2c1CCCC2 (stereo not drawn),4.5,-0.8,3.3,2183,1.5,-6.7,-2.8
Cn1c(=O)c2c(nc(NCc3cccnc3)n2Cc2ccc(Cl)cc2)n(C)c1=O,-24.4,-1.2,5.7,2924,-8.6,-7.8,6.9
CC(=O)C(=NNc1ccccc1)Sc1nnc(-c2ccccc2)n1-c1ccccc1,8.8,-5.9,-0.3,x,-0.9,x,x
N/C(=N\NC(=O)Nc1ccc(Cl)cc1)c1ccccn1,1.8,-8.3,-2.2,3664,11.6,-60.8,0.3
COCCCNC(=O)CCc1nc(-c2ccccc2Cl)no1,3.7,5.1,6.0,8094,1.8,-13.2,5.7
CN(C(=O)c1ccc(NC(=O)Cc2cccc(NC(=O)C3CCN(C(=O)C4CCC4)CC3)c2)cc1)C1CCCC1,2.9,8.6,6.8,3961,0.7,-17.9,x
# (further entries)
SMILES,RN4220 kill,Mtb hypoxia inh,Mtb hypoxia inh growth,Bead autofluor,Sa ugtP lethal,PrP UTR inh,BJeLR lethal
Cc1c(S(=O)(=O)N2CCN(c3ccc(F)cc3)CC2)c(=O)n(C)c(=O)n1C,4.6,8.9,-1.5,4173,15.4,0.8,-3.6
O=C(Nc1ccccc1)O/N=C/c1ccccc1Cl,x,x,x,6009,x,-26.2,2.6
Cc1cc([N+](=O)[O-])ccc1N,1.2,-1.1,10.8,5942,-1.1,7.9,-4.4
Cc1ccc(NC(=O)COC(=O)Cc2cccs2)c(Br)c1,2.2,11.7,5.8,4961,1.1,-14.0,2.1
CCOC(=O)c1c(NC(C)=O)sc2c1CCC(C=NCCCN(CC)CC)=C2Sc1ccccc1,25.2,x,x,4169,-4.5,6.4,-10.9
O=C(Nc1ccnn1C1CCN(Cc2ccn[nH]2)CC1)c1ccccc1,-2.3,2.3,2.9,6116,1.0,-4.9,6.3
COc1cc(C=O)ccc1OCCSc1ccc(Cl)cc1,-2.8,1.7,-3.0,11044,13.3,-33.6,-5.7
O=C1CC(C(=O)N2CCN(c3ccccc3O)CC2)CN1Cc1ccccc1 (stereo not drawn),2.7,8.4,-15.7,u,4.5,-5.9,2.4
Cc1cc(C)c2cc(C(=O)N3CCC(N4CCCCC4)CC3)[nH]c2c1,-2.2,-1.2,3.9,7903,-5.3,-5.9,6.9
CCOC(=O)c1cc(NC(=O)Nc2ccccn2)c(C)nc1C,6.6,18.5,9.2,2079,-1.8,-13.3,-3.3
CC(=O)Nc1ccc(NC(=O)CCN2C(=O)c3ccccc3C2=O)cc1,-4.1,5.4,10.4,3708,4.1,-8.9,2.8
COC(=O)c1cc(-c2ccc(C)o2)nc2ccccc12,13.1,0.7,4.8,2633,1.7,-7.5,-5.4
CC(NC(=O)Cc1ccc(S(=O)(=O)N2CCOCC2)s1)c1ccc(Br)cc1 (stereo not drawn),-1.1,11.1,0.6,4374,-2.1,-30.0,x
CC(C)CC(C(=O)Nc1ccccc1)N1C(=O)C2C3C=CC(C3)C2C1=O (stereo not drawn),12.6,-9.3,-4.5,3377,7.5,5.9,-0.3
CN(C)S(=O)(=O)c1cccc(NC(=S)N/N=C/c2ccc(O)c(O)c2O)c1,x,x,x,4755,x,-18.8,4.3
C=CCN1C(=O)c2ccc(C(=O)N(C)Cc3ccc(C)o3)cc2C1=O,2.7,-2.6,6.1,5282,5.2,8.2,-1.3
O=C(CCC1CCCN(C(=O)c2cccs2)C1)N1CCN(c2ccccn2)CC1 (stereo not drawn),2.9,8.1,-1.1,4354,8.4,-18.7,2.0
COc1ccc(OC)c(N(CC(=O)NC2CC2)S(=O)(=O)c2ccc(C)cc2)c1,1.2,17.0,11.1,u,-3.4,-21.0,-0.2
CN(C)/C=C(/C(=O)c1ccc(Cl)c(Cl)c1)S(C)(=O)=O,3.1,8.5,3.0,2071,4.4,-14.7,3.6
Fc1ccc(CNC2CN3CCC2CC3)cc1 (stereo not drawn),5.4,3.0,1.0,3452,12.7,-27.7,-1.9
COC(=O)CCN(C(=O)C12CC3CC(CC(C3)C1)C2)c1ccccn1,6.9,8.1,3.1,2324,-6.9,-23.6,13.1
CN(C(=O)c1cc2n(n1)C(C(F)(F)F)CC(c1ccco1)N2)c1ccc(OC(F)(F)F)cc1 (stereo not drawn),2.7,5.3,-3.2,u,-4.5,-28.2,5.8
CCOc1ccc2nc(SCC(=O)NNC(=O)c3ccco3)c(C)cc2c1,-0.6,1.1,0.6,3556,1.3,-19.1,-8.3
O=C(OC(C(=O)NCC1CCCO1)c1ccc(F)cc1)c1ccco1 (stereo not drawn),3.8,8.9,6.8,3731,5.3,-9.0,6.1
CCOC(=O)C1CCCN(C(=O)c2ccc3c(c2)OCCO3)C1 (stereo not drawn),3.3,5.0,8.8,u,7.7,-22.2,x
O=C(c1ccc2c(=O)n(Cc3ccccc3)c(=S)[nH]c2c1)N1CCOCC1,2.5,-0.2,1.6,6499,0.6,-9.1,3.0
